STK33 inh: human STK33 kinase inhibition; Q9BYT3; purified STK33, MBP phosphorylation, ADP-Glo luminescence; inhibition, % at 10 µM; 320,000 tested, 0.073% active;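 active means inhibition at or above 25%, using the most active replicate where run in duplicate; inactive means inhibition below 25%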
Target sequence (Q9BYT3 whole entry, looked up): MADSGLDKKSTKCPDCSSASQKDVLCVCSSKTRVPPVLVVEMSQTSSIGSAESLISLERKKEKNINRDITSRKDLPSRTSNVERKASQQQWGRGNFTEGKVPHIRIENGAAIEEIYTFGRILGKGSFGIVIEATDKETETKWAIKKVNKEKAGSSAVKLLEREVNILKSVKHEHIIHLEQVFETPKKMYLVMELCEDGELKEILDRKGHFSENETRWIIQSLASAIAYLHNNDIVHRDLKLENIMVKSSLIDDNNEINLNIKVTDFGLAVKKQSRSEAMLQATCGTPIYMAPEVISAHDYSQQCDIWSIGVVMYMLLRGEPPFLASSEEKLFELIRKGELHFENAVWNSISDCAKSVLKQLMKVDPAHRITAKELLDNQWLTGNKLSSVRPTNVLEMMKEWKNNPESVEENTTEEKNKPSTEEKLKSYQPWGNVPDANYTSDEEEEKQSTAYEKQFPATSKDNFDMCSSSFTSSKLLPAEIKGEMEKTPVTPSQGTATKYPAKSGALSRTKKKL
An asterisk follows results filed as active. An excerpt, and most or all hits are left out here.

structure	STK33 inh
Cc1ccc(S(=O)(=O)Oc2ccc(/C=N/NC(=O)c3c(Cl)cnn3C)cc2)cc1	-3.3
C1N2CN3CN1CN(C2)C3	-1.5
CCOc1cc(/C=C/C(=O)O)ccc1OCCOc1ccccc1	0.0
COc1ccc(C(=O)Nc2ccc(S(=O)(=O)Nc3ncccn3)cc2)cc1OC	0.2
COc1ccc(CCNC(=O)CCCCC(=O)NCCc2ccc(OC)c(OC)c2)cc1OC	-4.1
CN(C)c1cc(-c2ccc(C#N)cc2)oc(=O)c1Cl	5.9
COc1ccc(/C=N/NC(=O)c2cccnc2)c2ccccc12	0.9
Cc1nn(-c2ccc(F)cc2)c(Cl)c1/C=N/NC(=O)c1cccs1	-1.2
O=[N+]([O-])c1cccc(S(=O)(=O)Nc2ccc(-c3ccc(N4CCCC4)nn3)cc2)c1	-0.6
OCCN(Cc1ccccc1)c1ncnc2sccc12	0.1
CCOC(=O)c1c(C#N)c(SCC(=O)Nc2ccc(OC)cc2)nc2c1CN(CC)CC2	-1.9
CCOC(=O)c1cc2c(ccn2C)n1Cc1ccccc1Cl	-0.1
CSc1nnc(NC(=O)c2cccc(S(=O)(=O)N3CCOCC3)c2)s1	-2.5
CC(c1ccco1)N(C(=O)COc1ccc(Cl)cc1Cl)c1ccccn1 (stereo unspecified)	4.7
CC(C)[C@H](NC(=O)[C@H](Cc1ccccc1)n1c(=O)[nH]c2ccccc2c1=O)C(=O)N[C@@H](Cc1ccccc1)C(=O)O	-1.7
CCC(=O)NC1CCN(C(=S)NC)CC1	1.1
CCN(CC)C(=O)Oc1c(Cl)cc(Cl)c2cccnc12	-2.6
COc1cccc(C2C(C#N)=C(N)Oc3cc(C)oc(=O)c32)c1OC (stereo unspecified)	1.1
CC(C)(C)c1nnc(NC(=O)C2c3ccccc3Oc3ccccc32)s1	-2.3
CN(C[C@H](Cc1ccccc1)N(C[C@H](CC1CCCCC1)N(CCc1ccccc1)N=O)N=O)N=O	-1.3

Some of these compounds in order of their number in STK33 inh, falling.
structure	STK33 inh
CC(c1ccco1)N(C(=O)COc1ccc(Cl)cc1Cl)c1ccccn1 (stereo unspecified)	4.7
COc1cccc(C2C(C#N)=C(N)Oc3cc(C)oc(=O)c32)c1OC (stereo unspecified)	1.1
CCN(CC)C(=O)Oc1c(Cl)cc(Cl)c2cccnc12	-2.6

Back to the main list with the two entries that preceded the break.
structure	STK33 inh
CC(C)(C)c1nnc(NC(=O)C2c3ccccc3Oc3ccccc32)s1	-2.3
CN(C[C@H](Cc1ccccc1)N(C[C@H](CC1CCCCC1)N(CCc1ccccc1)N=O)N=O)N=O	-1.3
COc1ccc(N2CCN(C(=O)C3CCN(S(=O)(=O)c4ccc5c(c4)oc(=O)n5C)CC3)CC2)cc1	-3.8
COc1nonc1NCn1nc(C)cc1C	-0.2
Cc1cccc(Cc2nnc(NC(=O)c3cccc(S(=O)(=O)N4CCOCC4)c3)s2)c1	0.4
Cc1nn(-c2ccccc2)c(Cl)c1/C=N/N1CCN(c2ccccn2)CC1	-2.4
O=[N+]([O-])c1ccc(N/N=C2\CC3CC=CC23)cc1 (stereo unspecified)	-1.5
CC(C)(O)C#Cc1ccc(C(=O)N2CCCC(CCC(=O)NCc3ccccc3F)C2)cc1 (stereo unspecified)	-1.0
O=C(CN1C(=O)C2CC=CCC2C1=O)Nc1ccc(Br)cc1 (stereo unspecified)	-2.8
CC(C)c1ccc(NC2CCCN(C(=O)CCN3CCCO3)C2)cc1 (stereo unspecified)	3.5
Cc1nn(-c2nnc(NC3CCCCC3)nn2)c(C)c1Br	1.3
CCCOc1ccc(NC(=O)CC2C(=O)N(c3ccc(OCC)cc3)C(=S)N2C2CC2)cc1 (stereo unspecified)	0.7
COc1cc(OC)cc(-c2nnc(SCC(=O)N(Cc3ccccc3)C(C)(C)C)o2)c1	0.6
C/C(=C\C(=O)c1ccccc1)Nc1cccc(O)c1	1.1
Cc1ccc(S(=O)(=O)/N=c2\scc(C)n2C)cc1	0.8
CCc1nc2ccccc2n1CCC(=O)O	-2.2
COc1ccc(Cl)cc1N1C(=O)C2CCCN2C1c1ccc(F)cc1 (stereo unspecified)	3.4
CCOC(=O)C1C(C#N)=C(N)OC(C)=C1c1ccncc1 (stereo unspecified)	-0.9
CC(C)OC(=O)NCCOC(=O)Nc1ccc(Cl)c(Cl)c1	-3.1
COc1ccc(CNC(=O)N2CCN(c3ccc(F)cc3)CC2)cc1Cl	-1.9
CC(=O)Nc1nc(-c2ccccc2)c(-c2ccccc2)o1	-0.1
Cc1cccc(-n2ncc3c2CCCC3NC(=O)CN2CCCC2=O)c1C (stereo unspecified)	-0.1

Taken from above:
In STK33 inh, COc1ccc(/C=N/NC(=O)c2cccnc2)c2ccccc12 reads 0.9
In STK33 inh, COc1nonc1NCn1nc(C)cc1C reads -0.2
In STK33 inh, Cc1cccc(-n2ncc3c2CCCC3NC(=O)CN2CCCC2=O)c1C (stereo unspecified) reads -0.1
In STK33 inh, CC(C)[C@H](NC(=O)[C@H](Cc1ccccc1)n1c(=O)[nH]c2ccccc2c1=O)C(=O)N[C@@H](Cc1ccccc1)C(=O)O reads -1.7
In STK33 inh, COc1cc(OC)cc(-c2nnc(SCC(=O)N(Cc3ccccc3)C(C)(C)C)o2)c1 reads 0.6

The list continues.
structure	STK33 inh
O=C(COC(=O)c1ccccc1Sc1ccc(C(F)(F)F)cc1[N+](=O)[O-])NC(=O)NC1CCCC1	-0.6
COC(=O)CN(c1ccccc1)S(=O)(=O)c1cc(Br)ccc1OC	-1.0
O=C(CCC(=O)Nc1ccccc1)NNS(=O)(=O)c1ccccc1[N+](=O)[O-]	0.8
COc1ccc(S(=O)(=O)N2CCC(C(=O)NCc3ccco3)CC2)cc1C	-1.5
Cc1ccc(NC(=O)NCCN2CCCCC2)cc1C	-0.3
COC(=O)c1ccc2nc(-c3ccc4c(c3)OCO4)cn2c1	-1.3
N#Cc1nccnc1N1CCN(C(=O)Nc2ccccc2)CC1	-1.3
COc1cc(OC)cc(C(=O)N2CCC(C(=O)Nc3ccc4c(c3)OCCO4)CC2)c1	-0.1
CC(=O)/C(=N\Nc1ccc(C)cc1)Sc1nncn1C	-0.9
CCCCC(=O)NC1(C(F)(F)F)C(=O)Nc2c1c(=O)[nH]c(=O)n2Cc1ccco1 (stereo unspecified)	0.5
CCCOc1ccc(/C=N/NC(=O)C(=O)Nc2ccccn2)cc1	-0.1
COc1ccc([C@@H](C)NC(=O)CCc2nnc(-c3cc(C)on3)o2)cc1	-1.1
O=C(Nc1ccccc1)c1ccc(Br)c(S(=O)(=O)Nc2cccnc2)c1	-0.9
CC(O)c1ccc2c(c1)OCCOCCN(C)CCOCCO2 (stereo unspecified)	1.1
O=C(CCC(=O)Nc1nnc(C2CCCCC2)s1)NCc1ccccc1	-1.0
COc1ccc(-c2nc(CS(=O)(=O)CC(=O)Nc3ccc(Cl)cc3)c(C)o2)cc1	-0.6
Cc1ccccc1NC(=S)N(C)C1(c2ccccc2Cl)CCCCC1=O (stereo unspecified)	0.3
CCN(CC)S(=O)(=O)c1cc(NS(=O)(=O)c2c(Cl)cccc2Cl)ccc1C	-0.3
CC(C)N(C(=O)CSc1nc(Cc2ccccc2)nc2ccccc12)C(C)C	-0.4
CC(=O)C1=C(c2ccccc2)NC(=O)NC1c1ccccc1OCC(=O)Nc1ccccc1 (stereo unspecified)	-0.6
Cn1c(=O)cc(Cl)[nH]c1=O	-1.7
Cc1cc(C)cc(OCc2nnc(SCC(=O)OC(C)C)o2)c1	0.1
Cc1ccc(C(=O)NC2CCC(C)CC2)s1 (stereo unspecified)	-1.1
CCc1ccc(NC(=O)Cn2nnc(C(=O)NCc3ccc4c(c3)OCO4)c2N)cc1	-0.1
CCCCCCS(=O)Cc1ccccc1 (stereo unspecified)	-2.6
Cc1[nH]nc(SCC(=O)NCc2ccc(Cl)cc2)c1[N+](=O)[O-]	-1.5
Cc1cccc(-n2c(Cc3cc(=O)[nH]c(=O)[nH]3)nnc2SCC(=O)N2CCCCC2)c1	-1.0
Cc1cccc2c(C(=O)O)c3cccc(C)c3nc12	-5.3
O=C(CSc1nnc(-c2ccc(OC(F)F)cc2)o1)N1CCOCC1	0.0
COc1cccc(NC(=O)CSCC(=O)Nc2ccccc2)c1	-3.1
COc1ccccc1C(=O)NCC(=O)N/N=C/c1ccc2c(c1)OCO2	-0.6
Cc1cc2cc(CCNC(=O)c3ccc(S(=O)(=O)N4CCCC4)cc3)c(=O)[nH]c2cc1C	7.5
CC(=O)Nc1ccc(NC(=O)CSc2ccc3nnc(-c4ccccn4)n3n2)cc1	-0.8
C#CCSc1n[nH]c(=O)n1-c1cccc(C(F)(F)F)c1	-0.7
O=C(NCc1ccc(Cl)cc1)c1ccc(COCC(F)(F)F)o1	-1.7
COCCNC(=O)C(c1ccc(C)o1)N(C(=O)c1snc(C(N)=O)c1N)c1ccc(C)c(C)c1 (stereo unspecified)	0.4
Cc1ccnc(NC(=O)CCc2c(C)nc3ncnn3c2C)c1	-0.5
O=C(CSc1nc2[nH]c(=O)cc(O)c2s1)Nc1cc(Cl)cc(Cl)c1	0.1
CCN1CNC(=S)N(c2cccc(C)c2)C1	-1.4
CCCCCCCCCCCCS(=O)(=O)CCC(=O)O	-1.5

(list continues)
SMILES	STK33 inh
O=C(Cc1ccccc1)Nc1ccccc1N1CCOCC1	-0.2
CCc1ccc(S(=O)(=O)NCCc2cn3cccc(C)c3n2)s1	-1.7
COc1cc(/C=N/NC(=O)c2cc(-c3ccccc3)sc2N)cc(OC)c1OC	-1.6
Cc1ccc(-c2nc(N/N=C/c3cccnc3)c3ccccc3n2)cc1	5.3
COc1ccc2sc(N(CCN(C)C)C(=O)c3ccc4ccccc4c3)nc2c1	-0.7
C[C@H]1CC[C@]2(O[C@H](CCO)C[C@@H](O)[C@@H]2O)O1	0.1
CCOC(=O)C1CCN(C(=O)CCS(=O)(=O)c2ccc3c(c2)CCN3C(=O)CC)CC1	0.2
CN1CCC(N(C)S(=O)(=O)c2ccc(NC(=O)COc3cccc(Cl)c3)cc2)CC1	1.0
COC(=O)c1cc(C)sc1NC(=O)CCCC(=O)O	-1.7
Clc1ccc(Cn2c(CN3CCCC3)nc3ccccc32)cc1	-1.0
Cc1cccnc1NC(N)=S	-0.3
COc1ccccc1C1C(C(C)=O)=C(C)N=c2s/c(=C\c3cc(OC)c(OC)c(OC)c3)c(=O)n21 (stereo unspecified)	-3.1
CCNS(=O)(=O)c1ccc(CCC(=O)N2CCc3ccccc3C2)cc1	-3.6
Cc1cc2cccc(C)c2nc1SCC(=O)NNC(=O)c1ccco1	-0.6
O=C(COC(=O)C1=COCCO1)Nc1ccc(Oc2ccccc2)cc1	-0.1
Cn1c(-c2ccccc2)c(CCO)c2ccccc21	0.4
CCN(Cc1ccccc1)S(=O)(=O)c1cc(C(=O)NCC2CCCCC2)ccc1OC	-0.5
O=C(O)C1CSC(c2ccc3c(c2)OCO3)N1 (stereo unspecified)	0.4
C[C@H]1CC[C@@]2(O[C@H](CCO)C[C@H](O)[C@H]2O)O1	-0.5
Cc1cc(C)nc(SC(C)C(=O)Nc2ccc(S(N)(=O)=O)cc2)n1 (stereo unspecified)	-1.2
C=CCNC(=S)Nc1ccc(C(N)=O)cc1	0.0
Cc1c(C)n(CCN(C)C)c2ccc(C(=O)OCCN(C)C)cc12	-2.2
CCOc1ccc(OCC)c(NC(=O)CN2CCN(CC)CC2)c1	1.7
C=CCSc1n[nH]c(-c2ccccc2)n1	0.7
COc1ccc(CN2CCN(C(=O)c3cccc4ccccc34)CC2)cc1Br	-0.6
C=C(C)CN1CCN(c2c(CCC#N)c(C)c(C#N)c3nc4ccccc4n23)CC1	4.0
COCCN=C1OC(=O)N2C(=O)C3=C4[C@@H](C[C@H]5C(=O)N(c6ccccc6)C(=O)[C@H]5[C@H]4[C@@]12Cc1ccccc1)[C@H]1C(=O)N(c2ccccc2)C(=O)[C@H]1[C@H]3C	-0.3
O=c1[nH]c(CSc2cccc[n+]2[O-])nc2ccccc12	-1.7
Cc1cccc(CC2S/C(=N/N=C/c3ccco3)N(c3ccccc3)C2=O)c1 (stereo unspecified)	-0.8
CC1=CC(C)[C@@H]2COC(c3ccc(O)cc3)[C@H]1C2C (stereo partly specified)	0.2
Cc1ccc(CNC(=O)Nc2ccc(F)cc2)n1C	-0.3
CCN(CCn1cccn1)C(=O)CCc1nnc(-c2ccc3c(c2)OCO3)o1	1.0
CCCCNC(=O)COC(=O)c1c2c(nc3ccccc13)CCC2	-0.8
COc1ccc(-c2nnc(COc3ccc4ccccc4c3)o2)cc1OC	-0.1
CCN(CC)c1ccc(C(=O)OCC(=O)NC(C)(C)C)cc1	-0.1
C=CCn1c(SCCOc2ccc(OC)cc2)nnc1C(CO)NC(=O)c1ccc(OC)cc1 (stereo unspecified)	-0.3
COc1cc(C(=O)N(Cc2ccccc2)c2cccc(C)c2)ccc1OC(F)F	-0.4
Cn1cnnc1SCC(=O)N(Cc1ccc2c(c1)OCO2)C1(C(=O)NC2CCCCC2)CCCC1	-2.9
CCc1cc(=O)oc2c(C)c(OCC(=O)NCC3CCC(C(=O)O)CC3)ccc12 (stereo unspecified)	-1.8
O=C(NCc1ccccc1)N1CCNCC1	-0.6

Sorted by SMILES length (low to high): part of the list above
SMILES	STK33 inh
Cc1ccc(CNC(=O)Nc2ccc(F)cc2)n1C	-0.3
COc1cc(C(=O)N(Cc2ccccc2)c2cccc(C)c2)ccc1OC(F)F	-0.4
Cn1cnnc1SCC(=O)N(Cc1ccc2c(c1)OCO2)C1(C(=O)NC2CCCCC2)CCCC1	-2.9

Additional compounds:
SMILES	STK33 inh
CCN1CCN(c2ccc(S(=O)(=O)N3CCCCC3)cc2NC(=O)COc2cc(C)ccc2Cl)CC1	1.7
CCC1CCCCN1C(=O)COC(=O)c1cc(Br)ccc1Cl (stereo unspecified)	0.4
COc1ccc2nc(N3C(=O)CC(Cc4ccc(Cl)cc4)C3=O)sc2c1 (stereo unspecified)	0.9
COc1cccc(NC(=O)CSc2nc3n[nH]c(C)c3c(=N)n2-c2cccc(OC)c2)c1	-0.3

Screening data as filed in PubChem.
